CapD inh – CapD enzyme inhibition; purified CapD enzyme, fluorescence intensity read-out; hits give low values; some hits fall short of the stated cut; 0.23% of 140,000 active; z-score (test concentration not listed); AID 492967;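 active means z-score under -4 in either of two replicates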;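 further: stock transfer was 100 nL into about 40 µL; score is relative to mean and spread of the plate; one replicate is shown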
AID504770 – growth inhibitors of E. coli YBA685 in a screen for V. cholerae RctB (chromosome II replication) inhibitors; E. coli YBA685 rctB-dependent plasmid, OD600 growth, 3 h; hits give low values; z-score (no concentration beside the values); 0.27% of 130,000 active;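 active means z-score under -2 on both plates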;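 further: wells of about 30 µL received 100 nL stock; score is relative to mean and SD of the test wells; the first replicate is given; strong numbers were not always called active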
Numbers without * were called inactive; i = inactive; . = not tested or not shown; & = joins results of further samples.

molecule	CapD inh	AID504770
O=[N+]([O-])c1ccccc1SC1CC2C(c3ccc(Cl)cc3)Nc3ccc(Br)cc3C2C1Cl (stereo not given)	-0.11	.
CCOc1ccc(S(=O)(=O)N(C)c2ccc(OCC(=O)OCc3c(C)noc3C)cc2)cc1	.	1.1
Nc1nonc1-c1nc2ccccc2n1CCn1c(-c2nonc2N)nc2ccccc21	.	0.4
C#CC1(C)CCCC(C)(C)O1 (stereo not given)	-0.34	-0.65
COc1ccc(N2C(=O)NC(=O)C(Cc3ccc(O)c(OC)c3)C2=O)cc1 (stereo not given)	0.58	-0.65
CS(=O)(=O)c1cccc(C(=O)O)c1	.	-0.85
Cc1c(-n2cc(C(=O)O)c(=O)c3c(F)c(F)c(F)c(F)c32)c(=O)n(-c2ccccc2)n1C	0.1	-1.4
O=C1CSC(c2ccccc2[N+](=O)[O-])N1c1ccc(Oc2ccccc2)cc1 (stereo not given)	1.1	.
O=c1c(-c2nn[nH]n2)coc2ccccc12	0.17	-1.3
CN(C)CCSc1nc(-c2cccs2)cc(-c2ccc(Cl)cc2)c1C#N	13	0.15
NC(CC1CCCCC1)C(O)C(F)(F)F (stereo not given)	-0.78	1.1
COc1cccc(-c2noc(Nc3ccccc3)n2)c1	-0.12	-0.1

molecule	CapD inh	AID504770
O=C1CC(c2cccc(Br)c2)c2c(c3ccccc3oc2=O)O1 (stereo not given)	11	-0.9
O=C(Cn1nc(C(=O)O)c2ccccc2c1=O)NC12CC3CC(CC(C3)C1)C2	.	0.1
O=C(CSc1ncn[nH]1)N1CCCCC1	.	-0.7
CC(=O)OCC1OC(Oc2ccc(C(=O)OCCCN3CCOCC3)c(O)c2)C(OC(C)=O)C(OC(C)=O)C1OC(C)=O (stereo not given)	-0.47	.
O=c1ccc(-c2ccc3c(c2)OCO3)nn1Cc1ccc(F)cc1	.	0.7
Cc1ccc(-c2nnc(N3CCNC(=O)C3)c3ccccc23)cc1	.	-0.1
COC(=O)C1=CN(Cc2ccc(Cl)cc2)C=C(C(=O)OC)C1c1cc(Br)ccc1OC	52	.
CNS(=O)(=O)c1cccc(C(=O)OCC(=O)N2c3ccccc3NC(=O)C2(C)C)c1	.	-0.1
O=c1[nH]c2c(c(=O)n1C1CCCCC1)CCC2	0.4	0.3&-0.45
Cc1[nH]n(-c2ccccc2)c(=O)c1C=Nc1cccc(N)c1	23	0
CC(C)=CCOc1ccc2c(C)cc(=O)oc2c1	23	1.5
CC1CC(N(C(=O)c2ccc(F)cc2)c2ccccc2)c2ccccc2N1C(=O)c1ccc(F)cc1 (stereo not given)	-0.07	.

molecule	CapD inh	AID504770
Cc1ccc(NC(=O)C2CC2(c2cccc(C)c2)c2cccc(C)c2)cc1 (stereo not given)	-0.07	.
COc1ccc(C(=O)COC(=O)c2c3c(nc4ccccc24)CCN(C)C3)cc1	.	-0.75
C1CC(CCN2CCOCC2)CCN1	.	2
Cn1c(=O)n(Cc2ccc(C(C)(C)C)cc2)c(=O)c2c1ncn2Cc1ccccc1	0.085	.
O=C1ON=C(c2ccccc2)C1C=C1CCCC1 (stereo not given)	-0.85	-1.1
O=C(Nc1ccc(Cl)cc1C(F)(F)F)c1cc(S(=O)(=O)N2CCC(C(=O)O)CC2)ccc1F	-0.78	.
CCOC(=O)c1c(C)noc1/C(C)=N\OC(=O)c1ccccc1	-0.005	0.4
CC(NC(=O)Cc1ccccc1)c1nc2ccccc2[nH]1 (stereo not given)	.	-0.65
CN(C)c1ccc(NC(=O)Nc2ccc(C(C)(C)C)cc2)cc1	0.62	0.35
COc1ccc(-c2nc3ccccc3n2OCc2ccc(Cl)cc2)cc1	-0.78	.
CN(C)Cc1c(O)ccc2c(=O)c(Oc3ccccc3)coc12	79	-0.15
COc1cc2c(cc1OC)C(=O)N(Cc1ccc(C)cc1)CC2	0.48	0.05

molecule	CapD inh	AID504770
CCc1cc(SCc2nnc(-c3ccccc3)o2)n2c(nc3ccccc32)c1C#N	.	-0.3
Cc1onc(-c2ccccc2)c1CN1CCCCC1	-0.68	-0.7
COc1ccc(CCCOC(=O)N2CCC(O)C2)cc1 (stereo not given)	-1.3	.
Cc1c(C)c(C)c(CSC2=NCCCN2C2CCCCC2)c(C)c1C	0.5	.
COc1ccc(CNC(=O)C(NS(=O)(=O)c2ccc3c(c2)oc(=O)n3C)C(C)C)cc1 (stereo not given)	0	1
O=C(CSc1nnc(C2CC2)n1Cc1ccccc1)c1cc2ccccc2o1	.	0.5
O=C(Nc1ccc(CN2CCCCC2)cc1)c1cccnc1Cl	.	-0.45
O=C(Cc1csc(-c2ccccc2)n1)N(Cc1ccco1)Cc1cccs1	.	2.9
CN(C(=O)c1ccccc1F)C(C(=O)Nc1ccc2c(c1)OCCO2)c1ccccc1 (stereo not given)	-0.04	-0.15
Cc1ccc(S(=O)(=O)/N=C(/CN2CCOCC2)N2CCN(S(=O)(=O)c3ccc(C)cc3)C2C)cc1 (stereo not given)	-0.07	-1.1
COc1ccc(NC(=O)c2ccccc2I)cn1	-1.1	-0.85
CCCC(=O)CN1C(=O)C2(OCCO2)c2ccccc21	0.085	.

molecule	CapD inh	AID504770
Cc1nn(-c2ccccc2)c2nc(Cl)c(C(=O)O)cc12	49	-0.1
O=C(CN1C(=O)CSc2ccccc21)N/N=C/c1cccnc1	0.4	-0.65
Cc1nn(Cc2cccc(C(=O)NC(=O)Nc3ccc(Cl)cc3)c2)c(C)c1Br	0.45	0.05
c1ccc(C2=Nn3c(nnc3C3COc4ccccc4O3)SC2)cc1 (stereo not given)	3.2	0.3
O=c1[nH]c(SCc2c(Cl)cccc2Cl)nc2ccnn12	0.94	0.05
CCOC(=O)CSc1nnc(-c2ccccc2NC(=O)c2ccccc2)o1	.	2.7
O=C(CSc1ccc(-c2cccs2)nn1)c1cccs1	.	-0.7
COC(=O)C1CCN(C(=O)Cc2ccc(C)cc2)CC1	-0.18	-0.4
CC[n+]1c(C)csc1Nc1ccc(N2CC(C)OC(C)C2)cc1 (stereo not given)	-0.96&-0.005	-0.1&-0.25
CN1CCC(N(C(=O)c2cccs2)C2CC2)CC1	-0.52	.
O=C(O)Cc1ccc2c(c1)CCCC2	.	1
CS(=O)(=O)c1ccc(Cl)c(C(=O)OCc2nc3ccccc3s2)c1	.	-0.4

Reprinted at random: 5 entries already listed, in no set order.
molecule	CapD inh	AID504770
CS(=O)(=O)c1ccc(Cl)c(C(=O)OCc2nc3ccccc3s2)c1	.	-0.4
O=C(CSc1ccc(-c2cccs2)nn1)c1cccs1	.	-0.7
O=C(CN1C(=O)CSc2ccccc21)N/N=C/c1cccnc1	0.4	-0.65
O=c1[nH]c(SCc2c(Cl)cccc2Cl)nc2ccnn12	0.94	0.05
Cc1nn(Cc2cccc(C(=O)NC(=O)Nc3ccc(Cl)cc3)c2)c(C)c1Br	0.45	0.05

New compounds follow:
molecule	CapD inh	AID504770
CCCCN(C1=NC2CS(=O)(=O)CC2S1)c1ccc(Cl)cc1 (stereo not given)	0.1	-0.4
COc1ccc(C2C(C(=O)NCC3CCCO3)c3ccccc3C(=O)N2C)cc1 (stereo not given)	0.09	.
COC(=O)CSc1nnc(-c2cccs2)n1-c1ccc(OC)cc1	0.12	-1.8
CC(C)(C)n1nc(-c2ccc(F)cc2)c2c(N)ncnc21	-0.7	-0.65
CC12CN3CC(C)(C1=O)C(=O)C(C)(C3)C2=O	.	-0.45
Nc1ccc(-c2nc3ccccc3[nH]2)c(N)c1	i	-0.85
O=C(CN1C(=O)c2ccccc2C1=O)c1ccc(O)cc1O	.	0.3
CS(=O)(=O)Nc1ccc2c(c1)COC2=O	0.36	0.2
CC(c1ccco1)N(C(=O)c1ccc(C#N)cc1)c1ccccn1 (stereo not given)	0.21	0.05
COc1cc(-c2cc(OC)c(C)cc2OC)c(OC)cc1C	0.44	0.15
Cc1cc2cc(NC(=O)c3ccco3)ccc2[nH]1	-0.79	-1.6
CN(C)C(CN)c1ccccc1 (stereo not given)	.	-0.35

Molecule | CapD inh | AID504770
c1ccc(NCc2ccc3c(c2)OCO3)nc1 | -0.41 | 1
CC(C)=CC1C(CNC(=O)OCc2ccc(C(C)(C)C)cc2)C1(C)C (stereo not given) | -0.48 | .
COc1ccc(NC(=O)c2cccc(Br)c2)cn1 | . | -0.3
Oc1cs/c(=N/N=C/c2ccccc2)n1-c1cccc(C(F)(F)F)c1 | -1.8 | .
CCc1cc2c(=O)c(-c3nc4ccccc4[nH]3)coc2cc1O | 0.39 | -0.8
O=CN1CCN(C(=O)CSc2ncnc3sccc23)CC1 | . | -0.9
CCOC(=O)CCN(Cc1ccco1)S(=O)(=O)c1ccc(-c2ccnc(SC)n2)s1 | 0.65 | .
CN1CCCC1CCOC(=O)N1CCC(O)(c2ccc(Cl)cc2)CC1 (stereo not given) | 0.22 | .
COc1cc(O)cc(OC)c1 | . | -3.2
N/C(CSc1nc2ccccc2s1)=N\O | -0.34 | -0.75
COc1ccc(/C=C/C(=O)NC2CCN(Cc3ccccc3)CC2)cc1OC | 11 | -1.8
CCc1cc2c(=O)c(-c3nc4ccccc4[nH]3)c(CCC(=O)O)oc2cc1O | . | -0.1
CCC(=O)O[C@@H](O[P@](=O)(CCCCc1ccccc1)CC(=O)N1C[C@H](C2CCCCC2)C[C@H]1C(=O)O)C(C)C | -1.6 | .
CCOC(=O)C1=C(CSCc2ccccc2)NC(=O)NC1CC (stereo not given) | . | 0
N#CCc1nc(-c2ccc(C#N)cc2)cs1 | 1.4 | -0.45

Molecule | CapD inh | AID504770
CC(CCOC(=O)NNC(=O)Cn1cnc(Cl)c1Cl)c1ccccc1 (stereo not given) | -0.18 | .
Cc1cc(C)n2nc(C(F)(F)F)c(-c3ccccc3)c2n1 | 3.4 | -0.2
N#C/C(=C(/O)CN1CCN(S(=O)(=O)c2ccccc2C#N)CC1)c1nc2ccccc2[nH]1 | . | -0.15
N#Cc1cc2c(nc1SC1CCCCC1O)CCCC2 (stereo not given) | 0.49 | 1.5
N#Cc1c(N)nc(SCC(=O)c2ccc3ccccc3c2)c(C#N)c1-c1ccccc1 | -0.79 | .
N#CCCOc1ccccc1 | . | -0.95
CCOC(=O)C1=C(C)N=c2s/c(=C\c3cc(Br)ccc3O)c(=O)n2C1c1ccc(OC)cc1 (stereo not given) | -0.17 | .
CC(=O)n1cc(/C=c2\sc3nc4c(C)cccc4n3c2=O)c(-c2ccc(F)cc2)n1 | -0.62 | .
CC(=O)C1=C(c2ccccc2)S/C(=C2/C(=S)C(C)(C)Nc3ccc(C)cc32)S1 | -0.12 | .
CC(N=C1NS(=O)(=O)c2ccccc21)C(=O)OC(C)C(=O)Nc1ccc2c(c1)OCO2 (stereo not given) | . | 0.2
CC(C)Oc1ccc(CN2CCCCC2COC(=O)NCc2csc3ccccc23)cc1 (stereo not given) | -0.29 | .
Cc1cc(SCNC(=O)c2ccccc2)nc(C(C)C)n1 | -0.58 | -0.55
COCCCN=C1NS(=O)(=O)c2ccccc21 | 0.66 | 0.05
Cc1nnn(C23CC4CC(CC(C(=O)N5CCCCCC5)(C4)C2)C3)n1 | -0.23 | -0.35
NC(=O)C1CCN(C(c2ccccc2)c2nnnn2Cc2ccccc2)CC1 (stereo not given) | . | -1

Molecule | CapD inh | AID504770
COc1ccc(-n2c(SCc3cccc(F)c3)nc3cc(C(=O)NCc4ccco4)ccc3c2=O)cc1OC | -0.25 | .
O=C(O)c1cc(F)cc(C(F)(F)F)c1 | 0.1 | -0.7
CCOc1ccc(C(=O)Cc2ccccc2)cc1 | 1.1 | 1
CC(C(=O)N1c2ccccc2C(C)(c2ccccc2)CC1(C)C)N1C(=O)c2ccccc2C1=O (stereo not given) | -0.1 | .
O=C(CSc1ccccn1)N1CCN(c2ccccc2)CC1 | 0.31 | 0.9
C=CCn1cnc2c(cnn2-c2ccc(Cl)cc2)c1=O | -0.77 | -0.85
O=C(Nc1ccccc1)c1cccnc1Cl | -0.21 | 0.4
O=[N+]([O-])c1cccc(-c2nnc3c4ccccc4nc(C(F)(F)F)n23)c1 | 0.3 | .
COc1cccc(NC(=O)c2sc3nc(C)nc(N4CCN(C)CC4)c3c2C)c1 | -0.45 | .
O=C(CSc1nnc2sc3ccccc3n12)Nc1ccc(F)c(Cl)c1 | 0.12 | .
CCN1CCN(C(=O)C(C)Sc2nc3nn(-c4ccccc4)c(=O)c-3c3n2CCCCC3)CC1 (stereo not given) | . | 0.25
CC(C(=O)c1ccccc1)N1CCOCC1 (stereo not given) | 0.37 | .
N#Cc1ccc(-n2ccnc2)cc1 | -0.39 | -1.1
O=C1NC(=O)N(c2ccccc2)C(=O)/C1=C/c1ccc(-c2ccccc2[N+](=O)[O-])o1 | -0.62 | .
N#Cc1c(NC(=O)CCN2C(=O)c3ccccc3C2=O)sc2c1CCCCC2 | -0.24 | .

Another view of part of the listing above:
Every second line gives: CapD inh	AID504770
O=[N+]([O-])c1cccc(-c2nnc3c4ccccc4nc(C(F)(F)F)n23)c1
→ 0.3	.
COc1cccc(NC(=O)c2sc3nc(C)nc(N4CCN(C)CC4)c3c2C)c1
→ -0.45	.
O=C(CSc1nnc2sc3ccccc3n12)Nc1ccc(F)c(Cl)c1
→ 0.12	.
CCN1CCN(C(=O)C(C)Sc2nc3nn(-c4ccccc4)c(=O)c-3c3n2CCCCC3)CC1 (stereo not given)
→ .	0.25
CC(C(=O)c1ccccc1)N1CCOCC1 (stereo not given)
→ 0.37	.
N#Cc1ccc(-n2ccnc2)cc1
→ -0.39	-1.1
O=C1NC(=O)N(c2ccccc2)C(=O)/C1=C/c1ccc(-c2ccccc2[N+](=O)[O-])o1
→ -0.62	.
